Screening data: PubChem, several laboratories
T cruzi repl: blocks replication of Trypanosoma cruzi. inhibition, % (no concentration beside the values). hit rate 1.4% among 300,000. T. cruzi beta-gal in NIH3T3, luminescence, 90 h;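 active = mean inhibition across valid replicates above about 55%, limit read from the data; inconclusive = mean below that limit but half or more replicates reach it; inactive = mean below it, under half of replicates reach it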;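 note: signal also drops with host cell toxicity which is not excluded here; 0% = plate median of DMSO wells and 100% = zero luminescence signal; higher percent means less beta-gal luminescence so fewer parasites; stock transfer was 50 nL into about 50 µL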
rRNA inh HTS: selective bacterial rRNA inhibition in E. coli | GFP signal change (wild-type ribosome), % (test concentration not listed) | E. coli WT GFP vs humanized-ribosome RFP mutants, fluorescence, 24 h; hits give low values; DMSO median 0, no signal -100 | hit rate 1.6% among 350,000 | AID 720706;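 active = significant combined selectivity score with lowered wild-type GFP, culture density cut under 30%, mutant RFP and density less affected; inactive = any of these conditions unmet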; note: one replicate is shown; some compounds called inactive have numbers as strong as hits
RanGTP-Impb inh: disruptors of Ran-importin-beta complex formation – biochemical, FRET, CFP-Ran, YFP-importin-beta, homogeneous, primary screen | cell-free CFP-Ran/YFP-importin-beta FRET ratio | inhibition, % (concentration not given with the values) | hit rate 1.1% among 300,000;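 active = most replicates above 15%; inconclusive = exactly half above 15%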;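 note: 0% = DMSO wells and 100% = Ran loaded with GDP instead of GTP; wells of about 40 µL received 100 nL stock; the first replicate is given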
MLL AF4-AF9 inh: MLL-AF4/AF9 protein interaction inhibition; AlphaScreen, biotin-AF4 peptide binding to FLAG-AF9; inhibition, % at 10 µM; hit rate 0.47% among 350,000; AID 651704;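 active = every replicate reaching a set inhibition limit, whatever the replicate mean, cut at about 25% in these data; inconclusive = mean inhibition reaches that limit but some replicates miss it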;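 note: 0% = plate neutral control median and 100% = total signal loss; the record names both 10 and 1 µM as test concentration; the first replicate is given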
Target sequence (P42568 whole entry, looked up): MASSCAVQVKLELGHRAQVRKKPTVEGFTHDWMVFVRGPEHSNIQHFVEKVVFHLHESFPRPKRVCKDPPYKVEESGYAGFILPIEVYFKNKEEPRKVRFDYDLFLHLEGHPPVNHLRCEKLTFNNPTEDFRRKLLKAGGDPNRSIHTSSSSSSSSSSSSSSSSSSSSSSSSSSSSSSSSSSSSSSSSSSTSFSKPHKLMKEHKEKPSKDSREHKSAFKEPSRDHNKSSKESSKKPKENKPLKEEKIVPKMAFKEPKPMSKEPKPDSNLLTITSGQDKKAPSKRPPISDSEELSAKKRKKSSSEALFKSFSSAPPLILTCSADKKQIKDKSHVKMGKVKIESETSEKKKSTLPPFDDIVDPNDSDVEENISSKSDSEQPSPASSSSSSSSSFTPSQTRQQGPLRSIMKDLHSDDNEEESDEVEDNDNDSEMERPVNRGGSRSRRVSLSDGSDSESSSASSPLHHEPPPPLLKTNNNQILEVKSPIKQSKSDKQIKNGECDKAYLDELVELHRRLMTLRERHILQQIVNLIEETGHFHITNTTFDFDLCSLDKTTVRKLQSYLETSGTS
Bfl-1 A1 inh: inhibitors of the anti-apoptotic protein A1, read as caspase activation | MEF A1-2A-BIM cells, Caspase-Glo 3/7 luminescence, 3 h; percent of clofoctol response, vehicle zero | caspase activation, % (no concentration beside the values) | hit rate 0.066% among 330,000 | AID 2462;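 active = over half of replicate activation scores above 10%, or exactly half above 10 with the replicate mean above 10; inconclusive = replicate mean below 10 yet half the replicates above 10; inactive = over half of replicates below 10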;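 note: wells of about 30 µL received 50 nL stock; many hits fall short of the cut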
Beta apoptosis: blocks beta cell apoptosis | INS-1E cytokine-induced death, ATP luminescence, 48 h; percent of positive-control rescue, neutral wells zero | protection from apoptosis, % (test concentration not listed) | hit rate 0.8% among 300,000 | AID 435005;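 active = all replicates at 75% or more, or half of them and the mean; inconclusive = half reach 75% but not the mean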;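 note: 0% = cytokine-treated negative control wells and 100% = positive control rescue; higher means more ATP so stronger rescue from cytokine killing; wells of about 40 µL received 100 nL stock; the first replicate is given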
Vif A3G: HIV-1 Vif–A3G interaction blockers – biochemical, TR-FRET, GST-Vif 1-94, biotin-A3G peptide, dose response retest, primary screen (AID 1117319) | TR-FRET GST-Vif / biotin-A3G peptide binding; higher % means a stronger effect; test concentration not given here; strong numbers were not always called active | one-dose inhibition, %; IC50 in µM for titrated hits | hit rate 0.57% among 260,000;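 active = above the screen mean plus three standard deviations and confirmed in dose response; inconclusive = results disagree or hit not tested in dose response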;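 note: Vif residues 1-94 fused to GST binding biotinylated APOBEC3G peptide 110-148; 0% = full assay without inhibitor and 100% = GST in place of GST-Vif; retest series ran down from 100 µM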
Calb FLC: C. albicans growth modulation with fluconazole. hit rate 0.57% among 300,000. C. albicans CaCi-2 (fluconazole-resistant clinical isolate) + fluconazole, Alamar Blue growth, 48 h. growth inhibition, % (test concentration not listed). AID 1979;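 active = most replicates above 75%; inconclusive = exactly half above 75%; inactive = most below 75%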;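 note: all wells also contain fluconazole at 8 µg/ml as a sub-toxic cotreatment; 0% = median of DMSO wells and 100% = median of geldanamycin control wells; wells of about 8 µL received 7.5 nL stock; the first replicate is given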
rRNA inh HTS OD600: second read-out of rRNA inh HTS, no call of its own (marks repeat the call); OD600 change, %; measured here: OD600 growth;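 optical density of the mix in the first replicate; 0 = DMSO median and -100 = no signal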
rRNA inh HTS RFP: recorded beside rRNA inh HTS, whose call it bears; RFP signal change, %; measured here: RFP humanized mutant strains;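 first replicate; 0 = DMSO median and -100 = no signal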
Starred values were filed as active, the others as inactive; ? = inconclusive; . = not tested or not shown.

SMILES	T cruzi repl	rRNA inh HTS	rRNA inh HTS OD600	rRNA inh HTS RFP	RanGTP-Impb inh	MLL AF4-AF9 inh	Bfl-1 A1 inh	Beta apoptosis	Vif A3G	Calb FLC
CCCN(CCC)c1nc(Cl)nc(NCCN2CCOCC2)n1	10	-1	-9	-5.3	0.2	0.7	0.3	-2	3%	?
C=CCn1c(COc2ccc(F)cc2)nnc1SCC(=O)NC1CCCC1	-6	0	2	-0.4	?	-0.9	1.0	-5	-1%	2
CN(C)C(=O)c1c2c(nc3ccccc13)-c1ccccc1CC2	-22	.	.	.	2.7	.	0.1	0	?	7
O=C(CN1CCOCC1)Nc1ccccc1Cl	-4	.	.	.	-1.8	.	-0.1	.	3%	4
O=[N+]([O-])c1ccc(/C=N/n2c(-c3cccnc3)n[nH]c2=S)cc1	-12	.	.	.	0.6	.	0.6	-1	13%	1
Cc1cccc(NC(=O)c2ccc(S(=O)(=O)N3CC(C)OC(C)C3)cc2)n1 (stereo unspecified)	5	5	5	1.7	1.0	-0.7	-0.1	11	-13%	.
Brc1c(CSc2nc3ccccc3o2)nc2ncccn12	4	.	.	.	3.6	.	0.0	1	-4%	-1
CCCCOc1ccc(C(=O)N2CCCC2)cc1	-3	-4	-1	-2.9	-6.7	-53	-0.2	-3	9%	-3
O=C(NC(=S)NC1CCCC1)c1ccccc1Br	-5	.	.	.	4.1	.	-0.2	-4	-2%	-1
COc1ccc(C2CC(c3cccc(C)c3)n3ncnc3N2)cc1 (stereo unspecified)	-8	-8	-15	-2.1	-0.3	-0.7	0.1	-9	?	2
COc1ccc(-n2cnc3cc(NS(=O)(=O)c4ccccc4)ccc32)cc1	5	-28	-27	4.5	-0.1	-1.2	-0.8	2	2%	-2
Cc1ccc(S(=O)(=O)NC(=O)Nc2ccc(OC(F)F)cc2)cc1	-7	4	0	0.1	1.0	.	0.0	0	.	1
CC1CCN(S(=O)(=O)N2CCC(C(=O)NC3CCCC3)CC2)CC1	-14	6	-1	1.5	2.2	-3.7	0.1	-7	-6%	-30
Cc1ccccc1CN(C)CCc1ccccn1	-7	19	19	2.4	1.5	0.4	0.6	-2	8%	8
Cn1ncc(Br)c1NC(=O)Nc1ccc(OC(F)(F)F)cc1	6	-46	-78	-15	-0.3	7.0	0.6	17	21%	-8
Cc1cccc(N2CCN(C(=O)NC3CCCCC3)CC2C)c1 (stereo unspecified)	-7	-12	-29	-4.6	?	2.4	0.0	-3	-1%	16
O=C(Nc1ccc(N2CCCCC2)c(C(=O)O)c1)c1ccco1	1	.	.	.	6.9	.	-0.3	-9	2%	-7
CC(C)(C)OC(=O)N1CCC(C(=O)N2CCCCCC2)CC1	2	.	.	.	-2.4	.	0.7	2	21%	-13
Nc1scc(-c2ccncc2)c1Cl	-15	.	.	.	3.6	.	-0.9	0	12%	-1
CCc1n[nH]c(=S)n1/N=C/c1ccc(NC(C)=O)cc1	-12	6	9	-0.1	6.9	-4.5	2.2	-1	-2%	-1
CC(=O)Oc1c2occc2cc2ccc(=O)oc12	-8	.	.	.	0.5	-2.7	0.2	-5	21%	22
COc1ccc(Br)cc1Cn1nnc(C(=O)Nc2ccc3c(c2)OCCO3)c1N	28	-31	-35	1.7	-0.9	-2.2	.	.	.	-1
O=C(CNC(=O)c1cccs1)N/N=C/c1c[nH]c2ccccc12	-9	-4	0	-1.4	0.1	0.4	0.1	-3	-4%	8
COc1ccccc1-c1c(C)c(C)nc(N)c1C#N	-13	.	.	.	3.8	.	0.9	-5	?	20
Cc1oc(-c2ccccc2F)nc1CS(=O)(=O)CC(=O)NCCCN1CCN(C)CC1	4	-4	-11	-0.2	3.7	0.2	0.4	0	2%	6
COCCN(CC(=O)Nc1cccc(C)c1C)C(=O)Cc1cccs1	.	.	.	.	.	-1.6	1.6	2	6%	.
C=CCSC1=NN2CCS(=O)(=O)N=C2S1	-5	6	0	3.6	?	0.6	0.2	-6	-3%	-3
CC1(c2ccccc2)NC(=S)N2C1NC(=S)N2c1ccccc1 (stereo unspecified)	0	.	.	.	3.9	.	-1.0	-4	0%	-4
CCC(C(=O)NC1CCCC1)N(C(=O)c1snc(C(N)=O)c1N)c1ccc(C)cc1C (stereo unspecified)	13	2	5	2.5	5.2	-1.8	-0.1	2	.	38
Cc1[nH]nc(Nc2ccccc2)c1[N+](=O)[O-]	-4	.	.	.	-3.4	.	1.0	-6	3%	-8
CNC(=O)CN(c1ccc(Oc2ccccc2)cc1)S(=O)(=O)c1ccc(C)cc1	3	6	0	-2.5	-1.6	-0.6	-0.8	.	-4%	4
Cc1ccc(Cl)cc1Nc1nc(-c2sc(NC(=O)c3ccccc3)nc2C)cs1	1	.	.	.	-3.8	.	0.6	10	15%	-2
C=CCO/N=C(/C)c1c(O)c(CC)c(-c2ccccc2)n(-c2ccccc2)c1=O	-2	.	.	.	2.9	.	-0.5	-3	16%	29
COc1ccc(CNc2ncnc3cc(Cl)ccc23)cc1	4	3	6	-5.6	1.5	-2.8	?	15	-28%	-1
CC(C)[C@H](NC(=O)N1c2ccccc2NC(=O)[C@@H]1C(C)C)C(=O)N[C@H](C(=O)O)c1ccccc1	-2	4	7	-3.6	0.7	-0.9	0.4	-2	.	-2
COC(=O)CSc1nc2sc(C)c(C)c2c(=O)n1C	-7	.	.	.	?	.	0.5	2	-3%	?
CCOC(=O)c1cc(NC(=O)COc2ccc([N+](=O)[O-])cc2)cc(C(=O)OCC)c1	11	.	.	.	2.8	.	0.6	0	-14%	33
CSc1ccc(Cl)c(C(=O)OCC(=O)N2CCNC2=O)c1	.	-3	-11	-2.0	.	2.2	0.9	1	-9%	.
O=C(NCCc1ccncc1)Nc1ccccc1	-6	.	.	.	4.6	.	1.0	0	19%	-6
Nc1nc(CN2CCN(Cc3ccccc3)CC2)nc(Nc2ccccc2)n1	-3	7	7	-1.0	-3.1	-9.3	-0.1	3	?	9
O=c1c2oc3ccccc3c2[nH]c(=S)n1-c1ccc(F)cc1	-19	-5	-11	1.5	3.0	-18	-1.6	-3	0%	23
CCCNCc1cc(OC)c(OCc2ccccc2)cc1Br	4	-1	-4	-2.5	5.3	1.8	1.0	8	2%	1
O=C(Nc1nc(-c2cccs2)c(C(=O)C(F)(F)F)s1)c1ccccc1	-18	-57	-74	-16	-0.9	3.3	-0.7	.	.	20
O=C(NCc1ccccn1)Nc1ccc(Br)cc1	5	-7	-5	-0.5	-0.7	-0.4	1.2	-3	-6%	-1
Cc1nn(Cc2ccccc2Cl)c(Cl)c1/C=C/C(=O)OCC(=O)NC(N)=O	-1	.	.	.	-2.5	.	0.2	-1	4%	-16
O=C(c1ccccc1)N1CC(COc2ccccc2)OC(c2cccnc2)O1 (stereo unspecified)	8	.	.	.	-1.2	.	0.6	2	-1%	1
COc1cccc(N(C(=O)CNC(=O)c2ccco2)C(C(=O)NC2CCCC2)c2ccncc2)c1 (stereo unspecified)	-5	.	.	.	-2.5	.	1.3	0	2%	-3
Cc1ccc(NC(=O)c2ccc(S(=O)(=O)N3CCCCC3)cc2)nc1	.	17	24	0.1	.	-2.5	-0.3	-2	-1%	.
COc1ccc(C(CC(=O)Nc2ccc(C)cn2)N2Cc3ccccc3C2=O)cc1 (stereo unspecified)	9	-8	-8	3.3	-3.5	1.6	0.7	.	2%	8
CC(=O)c1cccc(NC(=O)c2ccc(N(Cc3ccccc3)S(C)(=O)=O)cc2)c1	-9	-9	-10	-1.1	2.9	.	-0.8	0	-1%	-3
Cc1cccc(N(C)C(=O)c2cc3cc4ccc(C)cc4nc3o2)c1	6	.	.	.	3.0	.	.	.	10%	-6
CCc1nnc(SCC(=O)Nc2ccccc2)nc1CC	7	.	.	.	0.8	.	-0.3	-10	7%	5
O=C(Nc1nnc(SCC(=O)N2CCCCC2)s1)c1cccs1	-3	.	.	.	?	.	-0.7	-7	-2%	25
Cc1ccc(-c2noc(CN(C(=O)C34CC5CC(CC(C5)C3)C4)C(C)C)n2)cc1	-3	.	.	.	8.5	.	-0.6	-5	0%	13
Cc1nc2c3ccccc3n(CCN3CCCCC3)c2s1	-10	.	.	.	-0.1	.	-0.6	7	-4%	15
CCC(=O)c1ccc2c(c1)N(CCCN(C)C)c1ccccc1S2	13	.	.	.	-9.1	16	-0.2	-4	.	.
COc1ccc(C(OCC2CO2)c2ccc(OC)cc2)cc1 (stereo unspecified)	2	.	.	.	5.7	.	-0.7	0	.	-3
COc1cccc(/C=C/C(=O)N2CCN(c3ccccn3)CC2)c1	-20	-16	-6	-4.0	3.1	-4.4	-0.7	-1	.	31
COC(=O)c1nnn(CC(=O)Nc2cccc(Cl)c2C)c1C(=O)OC	-17	.	.	.	4.5	.	0.0	-1	0%	-17
CCC(C(=O)c1ccc2ncccc2c1)c1ccccc1 (stereo unspecified)	-5	-8	-6	-1.9	1.0	1.2	0.1	0	6%	9
Remaining list, next part.
SMILES	T cruzi repl	rRNA inh HTS	rRNA inh HTS OD600	rRNA inh HTS RFP	RanGTP-Impb inh	MLL AF4-AF9 inh	Bfl-1 A1 inh	Beta apoptosis	Vif A3G	Calb FLC
CC(=O)N1c2ccc(S(=O)(=O)NCCC(=O)NCCc3ccc(Cl)cc3)cc2CC1C (stereo unspecified)	33	-13	-15	4.1	1.4	-5.6	-0.9	.	-3%	-8
CN(C)c1ccc(NC2=C(Cl)C(=O)c3ccccc3C2=O)cc1	51	-25	-25	-1.0	.	64*	-0.9	-21	20%	.
S=C(Nc1cccc(Br)c1)N1CCn2cccc2C1c1cccnc1 (stereo unspecified)	73*	-42	-69	-6.0	-0.2	12	1.4	-6	-2%	-19
Cc1ccc(OCC(=O)N/N=C/c2cccnc2)cc1C	-10	2	2	2.6	0.0	-0.2	-0.1	-4	-5%	-5
Cc1cccc(/C=N/NC(=O)c2cccc(NC(=O)c3ccccc3)c2)n1	-5	-4	4	5.4	1.7	-4.9	-0.1	.	.	7
Cn1c(=O)c2c(nc(NCCCO)n2Cc2cccc(C(F)(F)F)c2)n(C)c1=O	-2	0	-3	-0.4	-1.8	.	0.1	0	-1%	-3
CCn1c(SCC(N)=O)nnc1-c1ccc2[nH]c(C)c(C)c2c1	4	.	.	.	-2.0	.	0.8	-3	5%	5
CN(CCCN1CCOCC1)C(=O)c1cc(COc2c(F)cccc2F)on1	-9	13	9	1.8	-8.2	1.2	2.6	-3	.	29
Cc1ccc(Cn2cccc2C2=NC(C)CO2)cc1 (stereo unspecified)	3	.	.	.	2.2	.	0.8	5	-3%	-15
Cc1cccc(OCC(=O)Nc2ccccc2N2CCCCC2)c1	42	.	.	.	0.3	.	0.1	.	1%	40
COc1ccccc1CNC(=O)COC(=O)c1ccco1	.	4	8	-1.7	.	-1.9	0.7	-1	.	.
O=C1C(Cl)=C(Nc2ccccc2)C(=O)c2ccccc21	?	8	7	-0.9	0.8	-13	-0.5	66	-1%	2
COCCNC(=O)CN(C(=O)CCC(=O)Nc1ccccn1)c1ccccc1OC	-5	0	-5	-4.9	-3.4	-2.6	0.1	-1	.	-6
CC(C)C(=O)Nc1cccc(S(=O)(=O)c2cccc(NC(=O)C(C)C)c2)c1	-14	.	.	.	1.0	.	-0.1	-7	16%	13

An excerpt; count on the stated rates, not on these rows.
